KCNQ2 block = KCNQ2 channel blockers in CHO-K1 cells – cell-based, FluxOR thallium flux, B-score, primary screen (AID 2156); 20 min; active compounds read low; only compounds with negative scores are shown here; some inactives read as strong as hits; 310,000 compounds, 1.1% hits; O88943; B-score at 10 µM;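 active = fluorescence ratio B-score at most minus 3 library SDs, with starting brightness B-score within 2 library SDs, cut at about -5.5 in these data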
KCNQ2 block baseline = second read-out of KCNQ2 block, no call of its own (marks repeat the call); B-score; measured here: initial fluorescence intensity artifact check;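 brightness before thallium and not channel activity; 0 = typical well and far values either way flag optical interference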
Active calls of the source: *; i = inactive; & = joins results of further samples.

#1 COc1ccc(/C=N/NC(=O)c2ccncc2)cc1OC
#2 CNc1c2c(nn1C)CCCC2
#3 Nc1ncnc2nc[nH]c12
#4 COc1cc([C@H]2Oc3cc([C@H]4Oc5cc(O)cc(O)c5C(=O)[C@@H]4O)ccc3O[C@@H]2CO)ccc1O
#5 CCCCOc1ccc(CC(=O)NO)cc1
#6 COc1c(O)cc2c(c1O)[C@@H]1O[C@H](CO)[C@@H](O)[C@H](O)C1OC2=O (some centres not stated)

assay / entry | 1 | 2 | 3 | 4 | 5 | 6
KCNQ2 block | i | i | i | i | i | i
KCNQ2 block baseline | -0.85 | 1.63&-0.15 | -0.42 | -0.97 | 1.78 | -1.73

#7 CCc1c2c(nc3ccc(OC(=O)N4CCC(N5CCCCC5)CC4)cc13)-c1cc3c(c(=O)n1C2)COC(=O)[C@]3(O)CC
#8 CC[C@]1(O)C[C@@H]2CN(CCc3c([nH]c4ccccc34)[C@@](C(=O)OC)(c3cc4c(cc3OC)N(C)[C@H]3[C@@](O)(C(=O)OC)[C@H](OC(C)=O)[C@]5(CC)C=CCN6CC[C@]43[C@@H]65)C2)C1
#9 CC(C)(CO)C(O)C(=O)NCCCO (configuration not stated)
#10 COc1ccc(CN2CCN(C(c3ccc(F)cc3)c3ccc(F)cc3)CC2)c(OC)c1OC
#11 NC(N)=NC(=O)Cc1c(Cl)cccc1Cl
#12 NNC(=O)CP(=O)(c1ccccc1)c1ccccc1

assay / entry | 7 | 8 | 9 | 10 | 11 | 12
KCNQ2 block | i | i | i | i | i | i
KCNQ2 block baseline | -0.98 | 0.05 | 0.86 | -0.02 | -1.76 | 1.42

#13 O=C(Nc1ccc(C(=O)O)c(O)c1)c1ccccc1
#14 COC(c1ccccc1)(c1ccccc1)C(Oc1nc(C)cc(C)n1)C(=O)O (configuration not stated)
#15 NC(=NCc1ccccc1)NC(=O)c1nc(Cl)c(N)nc1N
#16 Cc1[nH]c2ccccc2c1/C=N/NC(N)=S
#17 COc1ccccc1OCCNCC(O)COc1cccc2[nH]c3ccccc3c12 (configuration not stated)
#18 CCCCC1C(=O)N(c2ccccc2)N(c2ccccc2)C1=O
#19 O=c1cc(-c2ccc(O)cc2)oc2cc(O[C@@H]3O[C@H](CO)[C@@H](O)[C@H](O)[C@H]3O[C@@H]3OC[C@](O)(CO)[C@H]3O)cc(O)c12
#20 COc1cc2nc(N3CCN(C(=O)[C@H]4COc5ccccc5O4)CC3)nc(N)c2cc1OC
#21 COc1ccc2ccc(=O)oc2c1

assay / entry | 13 | 14 | 15 | 16 | 17 | 18 | 19 | 20 | 21
KCNQ2 block | i | i | i | i | i | i | i | i | i
KCNQ2 block baseline | -0.67 | -0.02 | 0.06 | 0.25 | -1.19 | -1.62 | 0.59 | -1.27 | 2.48

Random excerpt: six compounds from above
#13 O=C(Nc1ccc(C(=O)O)c(O)c1)c1ccccc1
#14 COC(c1ccccc1)(c1ccccc1)C(Oc1nc(C)cc(C)n1)C(=O)O (configuration not stated)
#21 COc1ccc2ccc(=O)oc2c1
#19 O=c1cc(-c2ccc(O)cc2)oc2cc(O[C@@H]3O[C@H](CO)[C@@H](O)[C@H](O)[C@H]3O[C@@H]3OC[C@](O)(CO)[C@H]3O)cc(O)c12
#20 COc1cc2nc(N3CCN(C(=O)[C@H]4COc5ccccc5O4)CC3)nc(N)c2cc1OC
#17 COc1ccccc1OCCNCC(O)COc1cccc2[nH]c3ccccc3c12 (configuration not stated)

assay / entry | 13 | 14 | 21 | 19 | 20 | 17
KCNQ2 block | i | i | i | i | i | i
KCNQ2 block baseline | -0.67 | -0.02 | 2.48 | 0.59 | -1.27 | -1.19

Source: PubChem

Some of the compounds tested; rates above refer to the full screens.
